Compound activity deposited in PubChem BioAssay by Broad Institute.
Tg IFNy HTS: blocks Toxoplasma gondii growth in the presence of IFN-gamma | Toxoplasma gondii growth in IFN-gamma-treated host cells; stronger effect = lower value; reference of the scale not given here | activity change, negative = inhibition, %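 (about 20 µM by stock and volumes)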 | 69,000 compounds, 3.8% hits | AID 1259416;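 active = below -70%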;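 also: host cells are HeLa cells infected with Toxoplasma gondii; parasite growth read as luciferase light; one replicate is shown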
Starred values were filed as active, the others as inactive; & = joins results of further samples.

What do the screens show for `O=C(/C=C/c1ccco1)NCc1ccc2c(c1)OCO2`?
Tg IFNy HTS: 2

What do the screens show for `COc1ccc(-c2nc(Cn3ccn4nc(-c5cccs5)cc4c3=O)c(C)o2)cc1`?
Tg IFNy HTS: 3

Results for Nc1ccccc1NC(=O)c1ccc(CNC(=O)OCc2cccnc2)cc1 ?
Tg IFNy HTS: -11&-39

Results for FC(F)c1cc([C@@H]2CN(CC3CCCCC3)C[C@H]2c2ccccc2)[nH]n1 ?
Tg IFNy HTS: 48

How did O=C(CNC1CCCCCC1)NCCc1ccc(F)cc1 do in these assays?
Tg IFNy HTS: 4

How did COCC1(C(=O)NC2CN(C)S(=O)(=O)c3ccsc32)CCC1 (stereo unspecified) do in these assays?
Tg IFNy HTS: 7

Results for Cc1ccc(C)n1N(C)c1cccc(F)c1C#N ?
Tg IFNy HTS: 21

How did N#C[C@@H]1N[C@@H](CO)[C@@H]1c1ccc(-c2cccc(F)c2)cc1 do in these assays?
Tg IFNy HTS: 11

How did O=C(CCn1ncc2ccccc21)N1CCC(c2ccncc2)CC1 do in these assays?
Tg IFNy HTS: -36

What do the screens show for `COc1ccccc1/C=C/CN1CCOC(c2cc(C(=O)NC(C)C)c3ccccc3n2)C1` (stereo unspecified)?
Tg IFNy HTS: 12

What do the screens show for `Cn1c(CC2CCNCC2)nnc1SCc1ncccn1`?
Tg IFNy HTS: 6

How did Cc1c(C#N)c(NC(=O)c2ccc(Cl)cc2)n(Cc2cccc(Cl)c2)c1C do in these assays?
Tg IFNy HTS: -51

What do the screens show for `CCOc1ccccc1NC(=O)c1nnn(Cc2nc(-c3cc(Br)ccc3OC)oc2C)c1C`?
Tg IFNy HTS: -32

How did COc1ccc(N(Cc2nc(-c3ccc(C)cc3)oc2C)S(=O)(=O)c2ccccc2)cc1 do in these assays?
Tg IFNy HTS: 11

How did COc1ccc(S(=O)(=O)Nc2ccc3c(c2)C(=O)N([C@@H](C)CO)C[C@H](C)[C@@H](CN(C)Cc2ccc(C(F)(F)F)cc2)OCCCC[C@@H](C)O3)cc1 do in these assays?
Tg IFNy HTS: -86*

Results for NC(=O)C1CCCNC1 (stereo unspecified) ?
Tg IFNy HTS: 13

What do the screens show for `COc1ccccc1-c1ccccc1[C@@H]1[C@@H](C#N)N(C(=O)CN(C)C)[C@H]1CO`?
Tg IFNy HTS: -16

Results for COCCn1c(-c2ccc(OC)cc2)cnc1SCC(=O)Nc1ccc(C)c(Cl)c1 ?
Tg IFNy HTS: -90*

What do the screens show for `COc1ccc2c3c(n(C)c2c1)[C@H](CO)N(C)CC31CCN(C(=O)NC(C)C)CC1`?
Tg IFNy HTS: -8

What do the screens show for `c1ccc(-c2ncn(C3CCNC3)c2-c2ccc(Sc3ncn[nH]3)o2)cc1` (stereo unspecified)?
Tg IFNy HTS: 5

Copied from above (2 entries):
What do the screens show for `COc1ccc2c3c(n(C)c2c1)[C@H](CO)N(C)CC31CCN(C(=O)NC(C)C)CC1`?
Tg IFNy HTS: -8

What do the screens show for `c1ccc(-c2ncn(C3CCNC3)c2-c2ccc(Sc3ncn[nH]3)o2)cc1` (stereo unspecified)?
Tg IFNy HTS: 5

Retrieved by compound from above:
Results for FC(F)c1cc([C@@H]2CN(CC3CCCCC3)C[C@H]2c2ccccc2)[nH]n1 ?
Tg IFNy HTS: 48

How did O=C(CCn1ncc2ccccc21)N1CCC(c2ccncc2)CC1 do in these assays?
Tg IFNy HTS: -36

What do the screens show for `COc1ccc(-c2nc(Cn3ccn4nc(-c5cccs5)cc4c3=O)c(C)o2)cc1`?
Tg IFNy HTS: 3

Results for Cc1ccc(C)n1N(C)c1cccc(F)c1C#N ?
Tg IFNy HTS: 21

Results for Nc1ccccc1NC(=O)c1ccc(CNC(=O)OCc2cccnc2)cc1 ?
Tg IFNy HTS: -11&-39

What do the screens show for `COc1ccccc1/C=C/CN1CCOC(c2cc(C(=O)NC(C)C)c3ccccc3n2)C1` (stereo unspecified)?
Tg IFNy HTS: 12

How did COc1ccc(N(Cc2nc(-c3ccc(C)cc3)oc2C)S(=O)(=O)c2ccccc2)cc1 do in these assays?
Tg IFNy HTS: 11

Next entries.
What do the screens show for `C[C@@H](O)CNC(C)(C)CC(=O)N[C@@H]1CCc2ccccc2N(Cc2ccc(-c3ccccc3-c3nn[nH]n3)cc2)C1=O`?
Tg IFNy HTS: 18

What do the screens show for `CC(C)CN1CC2(CCN(S(=O)(=O)c3cccs3)CC2)C2(CCN(C)C2=O)C1` (stereo unspecified)?
Tg IFNy HTS: -30

How did COCCNC(=O)Cn1ncc2c(N3CCN(c4ccccc4)CC3)ncnc21 do in these assays?
Tg IFNy HTS: -33

What do the screens show for `CO[C@H]1CN(C)C(=O)c2cc(NS(C)(=O)=O)ccc2OC[C@@H](C)N(C(=O)C2CCOCC2)C[C@H]1C`?
Tg IFNy HTS: -11

How did CC(=O)N1CCC(C(=O)NCc2ccccc2)(N(C(=O)c2ccc(C)cc2)c2ccc(C(C)C)cc2)CC1 do in these assays?
Tg IFNy HTS: -98*

How did CC(C)(C)c1ccc(S(=O)(=O)N2CCC[C@@H]2C(=O)NCCc2csc(-c3ccccc3)n2)cc1 do in these assays?
Tg IFNy HTS: -61

What do the screens show for `CCC(C)NS(=O)(=O)c1ccc2[nH]c(=O)ccc2c1` (stereo unspecified)?
Tg IFNy HTS: inactive

Results for COc1ccc(OC)c(N(CC(=O)NCc2ccco2)S(C)(=O)=O)c1 ?
Tg IFNy HTS: 12

Results for Cc1ccc(N2CCCC3(CCN(C(=O)CC(F)(F)F)C3)C2)nn1 (stereo unspecified) ?
Tg IFNy HTS: 4

Results for Cc1cccc(CN(Cc2cccc(F)c2)CC2CCCO2)n1 (stereo unspecified) ?
Tg IFNy HTS: 4

What do the screens show for `CC(C)N1CCN(C)CC1c1nnc2ccc(C(=O)N3CCCC3)cn12` (stereo unspecified)?
Tg IFNy HTS: -2

What do the screens show for `Cc1cccc(NC(=O)c2c(O)c3cccnc3n(-c3ccc(F)cc3)c2=O)c1`?
Tg IFNy HTS: -1

How did Cc1ccc(NC(=O)c2ccc3c(c2)CCN3S(C)(=O)=O)c(C)c1 do in these assays?
Tg IFNy HTS: 11

How did CCN(CC)C(=O)CN(c1ccc(OC)cc1)S(=O)(=O)c1ccc(C)cc1 do in these assays?
Tg IFNy HTS: 5

Results for Cc1c(C)n(C(=O)CN2CCC(O)(Cn3cnc4ccccc43)CC2)c2ccccc12 ?
Tg IFNy HTS: 37

How did COc1ccc2c3c(n(C)c2c1)[C@@H](CO)N(S(=O)(=O)c1ccc(C)cc1)CC31CN(C(=O)c2ccccn2)C1 do in these assays?
Tg IFNy HTS: -11

How did COCCN1C(=O)CCc2cc(NS(=O)(=O)c3cc(C)cc(C)c3)ccc21 do in these assays?
Tg IFNy HTS: -11

What do the screens show for `COCC(=O)N1CC2(CCN(Cc3cccnc3)CC2)c2c(n(C)c3cc(OC)ccc23)[C@@H]1CO`?
Tg IFNy HTS: 10

What do the screens show for `CCC(=O)N1CC2(C1)[C@@H](c1ccc(-c3ccccc3C)cc1)[C@@H](CO)N2C(=O)CC`?
Tg IFNy HTS: -8

Results for Clc1cc2c(cc1CN1CCC(c3nc(-c4ccncc4)no3)C1)OCO2 (stereo unspecified) ?
Tg IFNy HTS: 1

What do the screens show for `Nc1ccc(Cl)cc1C(O)c1ccccc1` (stereo unspecified)?
Tg IFNy HTS: inactive

How did CC(C)CCN1[C@@H]2CCN(C(=O)[C@H]3CCCO3)CC[C@@H]2Oc2ccccc2S1(=O)=O do in these assays?
Tg IFNy HTS: -1

Results for COc1ccc2c3c(cccc13)C(=O)CC2 ?
Tg IFNy HTS: 16

How did CCN(CC)S(=O)(=O)c1ccc2c(c1)cc(C(=O)NCC1CCN(Cc3ccc(C)cc3)C1)n2C (stereo unspecified) do in these assays?
Tg IFNy HTS: -96*

What do the screens show for `COc1ccc(-c2cc(C3CCCCCN3C(=O)c3cccs3)no2)cc1` (stereo unspecified)?
Tg IFNy HTS: -2

What do the screens show for `Cc1cccc(-c2nnc(-c3nc(NCc4cccnc4)c4ccccc4n3)o2)c1`?
Tg IFNy HTS: 232

Results for COc1cccc(-c2nc(Cn3nnc(C(=O)Nc4ccc(F)c(F)c4)c3C)c(C)o2)c1OC ?
Tg IFNy HTS: 11

What do the screens show for `CN1C(=O)c2cc(NS(C)(=O)=O)ccc2OC[C@@H]2O[C@H](CC(=O)N3CCOCC3)CC[C@H]21`?
Tg IFNy HTS: 6

How did O=C(NCCc1cccc(F)c1)c1ccc(CSc2ncccn2)o1 do in these assays?
Tg IFNy HTS: 16

Results for C=CC(=O)Nc1ccccc1 ?
Tg IFNy HTS: 9

How did Cc1cccc2nc(-c3ccccc3)oc(=O)c12 do in these assays?
Tg IFNy HTS: -4

How did CCc1ccccc1NC(=O)N1CCc2nc(-c3cccc(OC)c3)sc2C1 do in these assays?
Tg IFNy HTS: 30

How did COc1ccc(/C=C2\CCn3c2nc2cc(C(=O)O)ccc2c3=O)cc1OC do in these assays?
Tg IFNy HTS: 46

How did CS(=O)(=O)N1CCSC1c1ccco1 (stereo unspecified) do in these assays?
Tg IFNy HTS: 2

What do the screens show for `CCn1c(C2CCCN(Cc3nc4ccc(F)cc4[nH]3)C2)n[nH]c1=O` (stereo unspecified)?
Tg IFNy HTS: 1

What do the screens show for `CC(C)CCC(=O)N1CCC2(COCc3cnc(-c4ccccc4)nc32)C1` (stereo unspecified)?
Tg IFNy HTS: -14

How did Cn1cc(C(=O)N2CC[C@H]3[C@H]2CCN3Cc2ccsc2)cn1 do in these assays?
Tg IFNy HTS: -5

How did CC(C)N1CCN(C(=O)CCNc2nc(CCN)nc3ccccc23)CC1 do in these assays?
Tg IFNy HTS: -6

How did COC(=O)C(Cc1ccc(OCCn2c(=O)sc3cc(C(=O)c4ccccc4)ccc32)cc1)C(=O)OC do in these assays?
Tg IFNy HTS: -87*

How did COc1cccc(S(=O)(=O)N2C[C@@H]3N[C@H](C2)C3c2ccc(-c3ccccc3F)cc2)c1 (stereo partly specified) do in these assays?
Tg IFNy HTS: -31&-66

Results for CN(Cc1cc(-c2ccccc2)no1)Cc1cccc(F)c1F ?
Tg IFNy HTS: 8

What do the screens show for `COCC1(C(=O)NC(c2ccncc2)c2ccc(C)cc2)CCC1` (stereo unspecified)?
Tg IFNy HTS: 3

Results for COc1ccccc1N1CCN(C(=O)c2cc3cccnc3n(Cc3ccccc3)c2=O)CC1 ?
Tg IFNy HTS: 28

What do the screens show for `Cc1ccc2nc(CN(C)C(=O)C3CC(C(C)C)=NO3)[nH]c2c1` (stereo unspecified)?
Tg IFNy HTS: 1

What do the screens show for `Cc1ccc(C2(O)CCN(C(=O)C(C)Cn3cncn3)CC2)nc1` (stereo unspecified)?
Tg IFNy HTS: 3

How did Cc1ccc2[nH]c(-c3nc(CCN(C)C(=O)c4ccncc4)no3)cc2c1 do in these assays?
Tg IFNy HTS: -26

How did O=c1cc(CN2CCC(N3CCCCC3)CC2)nc(-c2ccccc2)[nH]1 do in these assays?
Tg IFNy HTS: 32

Results for Cc1c(-c2cc(C(=O)NC(C)CCCc3ccccc3)no2)cnn1C (stereo unspecified) ?
Tg IFNy HTS: -23

How did O=C(c1ccc(F)cc1)N1CCN(S(=O)(=O)c2cc3c4c(c2)CCN4C(=O)CC3)CC1 do in these assays?
Tg IFNy HTS: 7

What do the screens show for `COc1ccc(OC)c(C(=O)N2CCC3(CC2)CC3C(=O)NCCCc2ccccc2)c1` (stereo unspecified)?
Tg IFNy HTS: -4

How did Cn1ccnc1CN1CCC(c2n[nH]c(=O)n2Cc2ccccc2)CC1 do in these assays?
Tg IFNy HTS: -5

Results for COc1cc(-c2cccc(O)c2)ncn1 ?
Tg IFNy HTS: 7

Results for COc1ccc(S(=O)(=O)N(C)Cc2nc(-c3ccccc3C)oc2C)cc1 ?
Tg IFNy HTS: 9

What do the screens show for `CO[C@@H]1CN(C)C(=O)c2cc(NC(=O)Cc3ccccc3)ccc2OC[C@@H](C)N(C(=O)c2ccccc2F)C[C@H]1C`?
Tg IFNy HTS: 5

Results for CCCCOC(=O)c1ccc(OS(=O)(=O)c2ccc(Cl)cc2)cc1 ?
Tg IFNy HTS: 72

Results for Cc1ccc(CNC(=O)COc2nc(C)nc3ccccc23)cc1 ?
Tg IFNy HTS: 18

Results for Cn1ccnc1-c1nccn1Cc1ccccc1Cn1cccn1 ?
Tg IFNy HTS: 0

How did CCCNC(=O)Nc1ccc2c(c1)C(=O)N(C)C[C@H](OC)[C@H](C)CN(C)[C@H](C)CO2 do in these assays?
Tg IFNy HTS: -29

What do the screens show for `Cc1cc(-c2cnc(NCCCN(C)C)nc2-c2cccs2)on1`?
Tg IFNy HTS: -2

Results for CN1CCCC(OC(=O)CCc2ccccc2)C1 (stereo unspecified) ?
Tg IFNy HTS: -53

Results for COc1ccc(CCN=C(N)C(C)c2ccccc2)cc1OC (stereo unspecified) ?
Tg IFNy HTS: 19

How did Cn1nc(C(F)(F)F)c2cc(C(=O)N3CCN4CCNC(=O)C4C3)sc21 (stereo unspecified) do in these assays?
Tg IFNy HTS: 4

What do the screens show for `CCN(CC)C(=O)[C@@H]1C[C@H](N)CN1C(=O)Cc1ccc(F)c(C)c1`?
Tg IFNy HTS: 3

How did N#C[C@H]1[C@H](c2ccc(C3=CCCCC3)cc2)[C@@H](CO)N1C(=O)CN1CCOCC1 do in these assays?
Tg IFNy HTS: 11

How did O=C1c2ccccc2-c2c1c1ccccc1c(=O)n2Cc1ccc2c(c1)OCO2 do in these assays?
Tg IFNy HTS: 18

What do the screens show for `COc1cc(OC)cc(-c2nc(N)c3c(C)c(-c4ccc(OC)c(OC)c4)sc3n2)c1`?
Tg IFNy HTS: -65

What do the screens show for `C[C@@H]1CN([C@H](C)CO)C(=O)CCCn2nncc2CO[C@H]1CN(C)C(=O)c1ccc2ccn(C)c2c1`?
Tg IFNy HTS: 21

Results for COCCO[C@H]1CCN(C(=O)c2ccno2)[C@H]1Cc1cnn(C)c1 ?
Tg IFNy HTS: 4

Results for CCc1nc(OCC(=O)Nc2ccc(C)c(C)c2)c2ccccc2n1 ?
Tg IFNy HTS: 3

What do the screens show for `Cc1cc(N2CCC(O)(c3ccc4c(c3)OCO4)CC2)nc(N)n1`?
Tg IFNy HTS: -7

The list is partial; the hit share may differ from the screen's.
